Cruzain inh Det – qHTS Assay for Promiscuous and Specific Inhibitors of Cruzain (with detergent); Cruzipain (Trypanosoma cruzi), P25779; purified cruzain, Z-FR-AMC fluorescence, 0.01% Triton; Potency, µM, without a hit: max response, negative = inhibition, most hits filed as inhibitors; 200,000 tested, 0.43% active; active = well fitted curve in the direction sought with a large enough effect; inconclusive = small, poorly fitted or top-dose-only effect, or another doubt; inactive = no such curve, though single readings can be large; an effect the other way counts as inactive or inconclusive;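 note: plate controls were neutral wells for no effect and buffer without enzyme for full effect; nearly all actives have a fitted effect of over 40% in size; top concentration of the series not given in the record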
Target sequence (P25779 123-467 limits assumed): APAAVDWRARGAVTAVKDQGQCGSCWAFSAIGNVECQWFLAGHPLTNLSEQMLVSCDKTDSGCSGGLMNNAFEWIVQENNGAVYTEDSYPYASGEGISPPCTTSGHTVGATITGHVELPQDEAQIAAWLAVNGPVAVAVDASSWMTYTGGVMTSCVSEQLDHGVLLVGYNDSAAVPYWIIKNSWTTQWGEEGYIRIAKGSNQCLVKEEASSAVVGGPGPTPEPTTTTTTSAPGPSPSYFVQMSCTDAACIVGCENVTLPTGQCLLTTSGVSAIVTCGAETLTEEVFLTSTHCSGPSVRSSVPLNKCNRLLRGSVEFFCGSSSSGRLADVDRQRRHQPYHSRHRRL
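Cruzain (1.5 nM) preincubated 15 min at RT with compound in 100 mM sodium acetate pH 5.5, 5 mM DTT, 0.01% Triton X-100. Reaction started with 2 uM Z-FR-AMC; AMC fluorescence (ex 360/em 450 nm) change over 60 s gave rate.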
Marburg entry inh – qHTS for inhibitors of binding or entry into cells for Marburg Virus. Marburg virus pseudotyped entry inhibition, cell reporter; control for the full effect not named in the record; about a third of the inactives were read at about 46 µM. Potency, µM (top dose mostly 37.8 µM), for inactives: at the top dose activity change, negative = inhibition, usual class: inhibitors. 300,000 tested, 1.8% active. AID 540276, 2011; active = well fitted inhibition curve with a large enough effect; inconclusive = small, poorly fitted or top-dose-only effect, or effect the other way; inactive = flat fitted curve, though single readings scatter; tested in HEK293 cells; about a fifth of its hits are not listed in these tables; note: % is set by controls: 0 for no effect and ±100 for the full control effect; luciferase read-out
NS1 function inh – qHTS Assay for Inhibitors of Influenza NS1 Protein Function. S. cerevisiae slowed by influenza A NS1, growth recovery by OD600. Potency, µM (top dose mostly 46.1 µM), without a hit: at the highest dose activity, positive = more growth. 270,000 tested, 0.4% active; note: actives are rising curves; nearly all actives have a fitted effect of over 50% in size
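Read-out: OD600 growth recovery of NS1-expressing budding yeast. Cells grown overnight at 30C in -URA glucose medium, washed, resuspended and diluted 1:100 in 2% galactose assay medium, pH 6.0. Same strain lacking NS1 served as positive control.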
StopGo reporter – High Throughput Screening for Foot and Mouth Disease Virus Antivirals | human cells with a luciferase reporter of 2A StopGo recoding; control for the full effect not named in the record | Potency, µM (doses to about 57.9 µM), without a hit: at the top dose signal change, negative = less light | 410,000 tested, 1.2% active; active = well fitted falling curve with a large enough effect; inconclusive = small, poorly fitted or top-dose-only effect; inactive = no such curve, though single readings can be large or run the other way; tested in HEK293T cells; note: % is set by controls: 0 for no effect and ±100 for the full control effect; nearly all actives have a fitted effect of over 45% in size; luciferase light after 4 h
SARS PLP yeast – qHTS of Yeast-based Assay for SARS-CoV PLP; S. cerevisiae expressing SARS-CoV PLpro, growth rescue; control for the full effect not named in the record; Potency, µM (highest dose often 32.9 µM), for the others: at the top dose activity, positive = growth rescue; 330,000 tested, 0.19% active; AID 485353, 2010; note: 0% is about no effect; nearly all actives have a fitted effect of over 55% in size; growth read by luminescence after 48 h
Lassa entry inh – qHTS for Inhibitors of binding or entry into cells for Lassa Virus; 300,000 tested, 1.2% active; Lassa virus pseudotype entry inhibition, cell reporter; control for the full effect not named in the record; AID 540256, 2011; Potency, µM (highest dose often 37.9 µM), for the others: at the top dose activity change, negative = inhibition, actives largely listed as inhibitors; active means well fitted inhibition curve with a large enough effect; inconclusive means small, poorly fitted or top-dose-only effect, or effect the other way; inactive means flat fitted curve, though single readings scatter; tested in HEK293 cells; note: % is set by controls: 0 for no effect and ±100 for the full control effect; nearly all actives have a fitted effect of over 50% in size; luciferase read-out
RE007 growth inh – qHTS Assay for Inhibitors of the HIV-1 protein Vpr. S. pombe RE007 Vpr strain, BacTiter-Glo ATP luminescence, 24 h; control for the full effect not named in the record. Potency, µM (doses to about 92.2 µM), for inactives: at the highest dose activity change, negative = less growth. 360,000 tested, 0.21% active; active = well fitted falling curve with a large enough effect; inconclusive = small, poorly fitted or top-dose-only effect; inactive = no such curve, though single readings can be large or run the other way;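 note: % is set by controls: 0 for no effect and ±100 for the full control effect; nearly all actives have a fitted effect of over 50% in size; the assay follows cell death caused by Vpr and the record does not say whether a fall means rescue or toxicity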
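Fission yeast RE007 carrying one integrated HIV-1 vpr copy, seeded at OD 0.01 in PMG+AL medium with 23 nL pinned compound. Grown 24 h at 30 degrees; viability read by BacTiter-Glo luminescence after 5 min.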
Cruzain noTriton – qHTS Assay for Promiscuous and Specific Inhibitors of Cruzain (without detergent). Cruzipain (Trypanosoma cruzi), P25779. purified cruzain, Z-FR-AMC fluorescence, no detergent. Potency, µM, for inactives: max response, negative = inhibition, actives largely listed as inhibitors. 200,000 tested, 2.3% active. AID 1476, 2009; active = well fitted curve in the direction sought with a large enough effect; inconclusive = small, poorly fitted or top-dose-only effect, or another doubt; inactive = no such curve, though single readings can be large; an effect the other way counts as inactive or inconclusive;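 note: plate controls were enzyme without inhibitor for no effect and buffer without enzyme for full effect; nearly all actives have a fitted effect of over 40% in size; top concentration of the series not given in the record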
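Purified cruzain at 1.5 nM, pre-incubated 15 min with compound at room temperature in 100 mM sodium acetate pH 5.5, 5 mM DTT, 0.00005% Triton X-100. Reaction started with 2 uM Z-FR-AMC; AMC fluorescence increase over 60 s gives rate.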
* hit, by the source's call; ? = inconclusive; . = no result given; & = joins results of further samples; [ ] = remark or other dose. Unless noted, calls come from the whole dose curve; as a rule, active means well fitted rising curve with a large enough effect; inconclusive means small, poorly fitted or top-dose-only effect; inactive means no such curve, though single readings can be large or run the other way. Potency is the fitted concentration of half-maximal effect.

Start of the listing, in advance:
structure | StopGo reporter | Marburg entry inh | Lassa entry inh | NS1 function inh | Cruzain inh Det | Cruzain noTriton | RE007 growth inh | SARS PLP yeast
NNC(=O)c1oc2nc(-c3ccco3)cc(-c3ccco3)c2c1N | -10% | -2% | -6% | 12% | . | . | 4% | -2%
CCOC(=O)c1cc(NC(=O)c2ccc(OC)cc2)c(=O)oc1-c1ccccc1 | -20% | -26% | -10% | -13% | -1.3% | 5% | -6% | 3%
Cc1ccc(CCNC(=O)C2CCN(S(=O)(=O)c3cccc4cccnc34)CC2)cc1 | -21% | ? | ? | -12% | . | . | -6% | 0%
CCOC(=O)C1CN(S(=O)(=O)c2ccc(Cl)cc2)c2cc(S(=O)(=O)CC)ccc2O1 (stereo not drawn) | -6% | 14%[46.1 µM] | -7%[46.1 µM] | -18% | . | . | -6% | 0%

The listing, previewed entries included:
structure | StopGo reporter | Marburg entry inh | Lassa entry inh | NS1 function inh | Cruzain inh Det | Cruzain noTriton | RE007 growth inh | SARS PLP yeast
NNC(=O)c1oc2nc(-c3ccco3)cc(-c3ccco3)c2c1N | -10% | -2% | -6% | 12% | . | . | 4% | -2%
CCOC(=O)c1cc(NC(=O)c2ccc(OC)cc2)c(=O)oc1-c1ccccc1 | -20% | -26% | -10% | -13% | -1.3% | 5% | -6% | 3%
Cc1ccc(CCNC(=O)C2CCN(S(=O)(=O)c3cccc4cccnc34)CC2)cc1 | -21% | ? | ? | -12% | . | . | -6% | 0%
CCOC(=O)C1CN(S(=O)(=O)c2ccc(Cl)cc2)c2cc(S(=O)(=O)CC)ccc2O1 (stereo not drawn) | -6% | 14%[46.1 µM] | -7%[46.1 µM] | -18% | . | . | -6% | 0%
COc1ccc(Cl)cc1NC(=O)Cn1c(=O)c(-c2ccccc2NC(C)=O)nc2ccccc21 | -11% | 5%[46.1 µM] | -2%[46.1 µM] | . | -1.6% | -3% | . | .
Cc1ccc(C)c(NC(=O)CSc2nc(=O)n(CCN(C)C)c3c2CCC3)c1 | -9% | . | -27%[46.1 µM] | . | 3.9% | 16% | . | .
CCCCSc1nn[nH]n1 | . | 19% | 1% | -1% | 0.7% | -3% | 6% | 1%
N#CC1=C2N=C(N)c3ccccc3N2C2=C(C(=O)CCC2)C1c1cccc(Cl)c1 (stereo not drawn) | -3% | ? | ? | ? | -7.1% | ? | 1% | 3%
Cc1cc(-c2ccc(N3CCOCC3)cc2)nc2ccccc12 | 15% | ? | -24% | 6% | -17% | 3% | ? | 18%
COc1ccc(CCNC(=O)COC(=O)Cc2c[nH]c3ccccc23)cc1OC | -22% | -19% | 24% | . | . | . | -7% | -6%
COc1cccc(C(=O)Nc2ccc(N(C)C)cc2)c1OC | 16% | -8%[46.1 µM] | 14% | -5% | -0.1% | 14% | -5% | -7%
O=C(/C=C/c1ccccc1)NCCc1ccc2c(c1)OCCO2 | 12% | -22% | ? | -18% | -3.5% | -1% | 9% | -20%
COc1ccc(Oc2c(C(F)(F)F)oc3cc(OCC(=O)O)ccc3c2=O)cc1 | -8% | . | . | 5% | . | . | -9% | -2%
Cc1cc(C2=NNC(=NCCc3ccccc3)SC2)c(C)n1CC1CCCO1 (stereo not drawn) | -23% | ? | -4% | . | . | . | -13% | 3%
COc1ccc(S(=O)(=O)NCc2ccccn2)cc1Cl | 25% | 13% | -9% | -7% | 1.3% | 4% | -10% | 1%
CC(=O)O[C@@]12CO[C@@H]1C[C@H](OC1OCC(O)C(O)C1O)[C@@]1(C)C(=O)[C@H](O)C3=C(C)[C@@H](OC(=O)[C@H](O)[C@@H](NC(=O)c4ccccc4)c4ccccc4)C[C@@](O)([C@@H](OC(=O)c4ccccc4)C12)C3(C)C (stereo partly drawn) | -19% | . | . | -64% | . | . | 6% | -8%
O=C(COC(=O)/C=C/c1cn(-c2ccccc2)nc1-c1ccc2c(c1)OCCO2)NC1CCS(=O)(=O)C1 (stereo not drawn) | -2% | . | . | -8% | . | . | -11% | -1%
CC(C)(C)C(=O)Cn1c(=O)n(-c2ccc(Cl)cc2)c(=O)c2c3c(sc21)CCCC3 | -24% | 5%[46.1 µM] | 9%[46.1 µM] | . | -1.7% | 3% | . | .
CCOC(=O)c1c(S(=O)(=O)NCC(=O)Nc2cc(C)ccn2)c(C)n(C)c1C | 19% | 3%[46.1 µM] | ? | 2% | . | . | 1% | 0%
S=c1[nH]cc(-c2ccc(Cl)cc2)n1-c1ccccc1 | -9% | ? | 9% | ? | 0.7% | -6% | 6% | -6%
COc1ccc(OC)c(CN2CCN(S(=O)(=O)c3ccccc3)CC2)c1 | -24%&-27% | -23% | ? | . | -0.5% | 0% | -14% | .
CC(=O)c1ccc(NC(=O)c2ccc(CN3C(=O)CCn4nc(C)cc43)cc2)cc1 | 15% | . | 24%[46.1 µM] | . | -5.1% | -20% | . | .
O=C(C1CCCN(c2nnc(-n3cccc3)s2)C1)N1CCC2(CC1)OCCO2 (stereo not drawn) | -15% | -3% | 0% | 3% | 1.1% | -9% | -1% | 0%
CCOC(=O)c1ccc(NC(=O)CN2C(=O)CSCC2=O)cc1 | 44%[activator] | 2% | 3% | -1% | 0.2% | -4% | 0% | 2%
CN(C)C(=O)c1ccc(NC(=O)c2cc(-c3ccco3)nc3ccccc23)cc1 | -13% | 3% | -2% | 11% | . | . | -5% | -7%
CC(=O)NC12CC3CC(C1)CC(C(=O)OCC(=O)NC(=O)c1cccn1C)(C3)C2 | 1% | 3% | 19% | 2% | 0.9% | 4% | -2% | -1%
COc1ccc(CCNC(=O)C(=O)NCC(c2cccs2)S(=O)(=O)c2ccccc2)cc1 (stereo not drawn) | 28µM* | . | -3%[46.1 µM] | . | 2.4% | 18% | . | .
O=S1(=O)OCCC(c2ccccc2)N1Cc1ccccc1 (stereo not drawn) | 72%[activator] | . | . | 9% | . | . | 0% | 4%
Cc1ccsc1C1NC(=O)c2ccccc2N1 (stereo not drawn) | 18% | ? | -10% | 1% | -3.5% | -3% | -17% | 3%
CC(=O)C1=C(O)C(=O)N(CCN2CCOCC2)C1c1ccc(N(C)C)cc1 (stereo not drawn) | 10% | ? | -13% | ? | . | . | 6% | .
O=C(O)C1CCN(C(=O)c2ccccc2C(=O)N2CCC(C(=O)O)CC2)CC1 | . | 3% | 8% | -10% | 7.1% | 5% | -3% | 13%
Cc1cccc(NS(=O)(=O)c2ccc(C)c(C(=O)N(C)C3CCN(C)CC3)c2)c1 | 13% | -5% | 10% | . | . | . | 6% | -4%
Cc1ccc(-c2noc(CN3CCC(C(N)=O)CC3)n2)cc1 | 68%[activator] | 1% | ? | 2% | 2.3% | -5% | 12% | 3%
CCCCCn1c(=O)[nH]c2cc(C(=O)Nc3ccc(OC)c(OC)c3)ccc2c1=O | 7% | . | 1%[46.1 µM] | . | 0.1% | ? | . | .
CCCC(=O)Nc1cc(C)c(NC(=O)c2ccco2)cn1 | 11% | 11% | 13% | -20% | . | . | 7% | 1%
O=S(=O)(NN=C1CCCCCC1)c1ccc(Cl)cc1 | 26% | . | . | 1% | . | . | -8% | -6%
CC(C)(C)OC(=O)N1CCC(NC(=O)c2nc[nH]c2C(=O)NCC(=O)OCc2ccccc2)CC1 | ? | . | . | -2% | . | . | 7% | 3%
C=CCn1c(SCc2c(C)noc2C)nc2sc3c(c2c1=O)CCC(C)C3 (stereo not drawn) | ? | ? | ? | 4% | -6.5% | -16% | 10% | -4%
O=S(=O)(Nc1ccncc1)c1cc(Cl)ccc1Cl | 13% | . | . | -1% | . | . | 1% | 3%
Cc1cccc(OCC(=O)OC(C)CN2CCCCC2)c1 (stereo not drawn) | 9% | . | . | 18% | . | . | 2% | -6%
CNC(=S)N1CCc2ccccc2C1 | 0% | ? | -4% | 3% | 2.1% | 1% | 2% | -2%
Cc1ccc(-n2ncc3c2CCCC3NC(=O)CCCN2CCCCC2=O)cc1C (stereo not drawn) | -9% | ? | 17% | -14% | . | . | 15% | 1%
Cc1ccc(NC(c2nnc(-c3ccccc3)o2)c2ccccc2F)c(Cl)c1 (stereo not drawn) | -17% | 19%[46.1 µM] | 12%[46.1 µM] | . | -4.5% | -5% | . | .
CCOc1ccc(-c2csc3ncnc(Nc4cccc(O)c4)c23)cc1 | ? | ? | -3%[46.1 µM] | . | -7.8% | 3% | . | .
COc1cc(/C=C2\C(=N)N3N=C(S(C)(=O)=O)SC3=NC2=O)ccc1OCCOc1ccccc1C | -26% | ? | 13% | 0% | . | . | -3% | -1%
Cc1ccc(C(=O)CSc2n[nH]c(-c3ccco3)n2)cc1C | 19% | -13% | -8% | -15% | -4.7% | -7% | -24% | -8%
Cc1cc2c(cc3c(SCC(=O)Nc4cccc(Cl)c4C)nnc(C)n32)o1 | 21% | . | 18%[46.1 µM] | . | -7.0% | -6% | . | .
O=C(c1ccc2nc(N3CCOCC3)sc2c1)N1CCCC1 | 26% | . | . | -1% | -7.6% | ? | -10% | -5%
CCCCN(C)C(=O)C1CCCN(S(=O)(=O)c2ccc3c(c2)oc(=O)n3C)C1 (stereo not drawn) | 0% | . | . | -2% | . | . | -5% | -1%
COc1ccc(/C=N/n2c(SC)nnc2-c2ccccc2)cc1C | -21% | ? | ? | -104% | -6.2% | ? | 18% | .

Screening data as filed in PubChem.

Hits appear at their usual frequency; any-hit rate near 4.6%.
